Screens deposited in PubChem BioAssay by National Center for Advancing Translational Sciences (NCATS).
NPR1 antag = blocks ANP-stimulated signaling of human Npr1 receptor; 1.6% of 76,000 active; P16066; Potency, µM (highest dose often 46.3 µM), without a hit: at the top dose activity change, negative = inhibition, hits mostly inhibitors; HEK293 hNpr1 GloSensor cGMP, ANP-stimulated luminescence; active = well fitted inhibition curve with a large enough effect; inconclusive = small, poorly fitted or top-dose-only effect; inactive = no such curve, though single readings can be large or run the other way;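 note: nearly all actives have a fitted effect of over 60% in size; nearly all hits also lower the signal before the agonist is added; a reference antagonist and vehicle were the controls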
Target sequence (P16066 whole entry, looked up): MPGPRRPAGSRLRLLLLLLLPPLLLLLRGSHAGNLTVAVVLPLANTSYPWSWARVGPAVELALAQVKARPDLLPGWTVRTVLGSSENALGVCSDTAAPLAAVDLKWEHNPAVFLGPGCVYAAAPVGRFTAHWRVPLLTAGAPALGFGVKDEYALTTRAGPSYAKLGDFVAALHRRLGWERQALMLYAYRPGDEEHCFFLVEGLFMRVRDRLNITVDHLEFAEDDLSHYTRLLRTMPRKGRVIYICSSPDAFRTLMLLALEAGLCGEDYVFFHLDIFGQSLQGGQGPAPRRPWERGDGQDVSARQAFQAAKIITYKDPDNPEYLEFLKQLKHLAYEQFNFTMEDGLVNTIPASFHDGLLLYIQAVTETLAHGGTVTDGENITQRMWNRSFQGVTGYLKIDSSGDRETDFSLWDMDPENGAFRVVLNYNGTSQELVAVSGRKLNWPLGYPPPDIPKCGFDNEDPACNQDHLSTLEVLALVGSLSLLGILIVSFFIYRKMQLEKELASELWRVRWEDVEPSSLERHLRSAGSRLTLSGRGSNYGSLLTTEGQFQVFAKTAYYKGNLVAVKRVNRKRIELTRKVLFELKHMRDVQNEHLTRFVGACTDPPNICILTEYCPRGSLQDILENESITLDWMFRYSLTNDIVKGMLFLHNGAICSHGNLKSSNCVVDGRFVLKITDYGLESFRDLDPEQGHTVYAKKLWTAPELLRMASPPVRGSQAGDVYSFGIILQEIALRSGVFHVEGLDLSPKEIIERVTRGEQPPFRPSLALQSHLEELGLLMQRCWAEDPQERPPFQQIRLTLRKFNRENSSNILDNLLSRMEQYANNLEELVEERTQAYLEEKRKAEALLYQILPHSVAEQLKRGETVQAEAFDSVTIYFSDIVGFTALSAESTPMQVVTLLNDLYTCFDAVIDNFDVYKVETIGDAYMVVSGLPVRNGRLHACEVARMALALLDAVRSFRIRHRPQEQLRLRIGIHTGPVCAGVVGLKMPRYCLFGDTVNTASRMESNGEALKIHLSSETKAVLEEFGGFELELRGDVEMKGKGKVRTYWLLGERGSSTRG
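Compound pre-incubated 30 min at room temperature on GloSensor-loaded HEK293 cells stably carrying hNpr1 and the pGS-40F cGMP biosensor. Stimulation uses hNppA at 0.1 nM final; luminescence is taken at baseline and 20 min post-agonist.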
Active calls of the source: *; ? = inconclusive; [ ] = another dose, or the depositor's remark. % is set by controls: 0 for no effect and ±100 for the full control effect; potency is the fitted concentration of half-maximal effect. Only part of the results is shown. The share of hits here may be higher or lower than overall.

SMILES | NPR1 antag
COc1cc(Cl)c(C)cc1NC(=O)Cn1ccn2nc(-c3ccc(F)cc3)c(CO)c2c1=O | -20.3%
CCCN(CC1CC1)C(=O)c1ccc2c(c1)C(O)CCCCCN2CCOC (stereo unspecified) | -9.7%
CCn1cc(CN2C[C@@H](CO)[C@H](NC(=O)COC)C2)c2ccccc21 | 0.0%
CCc1csc(CNC(=O)c2ccc(N3CC[C@H](O)C3)nc2)n1 | -3.0%
O=C(NCc1ccc(F)cc1)C1(CCO)CC12CCOCC2 (stereo unspecified) | 4.8%
C[C@@H](NC(=O)Cc1ccccc1)c1onc(-c2ccc(F)cc2)c1C(=O)O | -0.2%[70.6 µM]
COCc1nc(-c2ccc(OC3CCN(C(=O)Cc4c[nH]c5ccccc45)C3)cc2)no1 (stereo unspecified) | ?
COc1ncccc1-c1cnc2[nH]cc(CC(=O)Nc3ccccc3)c2c1 | ?
COc1ccc(NC(=O)O[C@@H]2CO[C@H]3[C@@H]2OC[C@@H]3n2nnnc2Sc2ccccc2)cc1 | -17.6%
O=C(Nc1ccccc1)N1CCC2(CC1)SCC(=O)N2c1ccccc1 | 0.0%
O=C(c1ccoc1)N1CCC2(CC1)N=C(c1cccc(Br)c1)NO2 | -1.0%
COCc1nc(C2CCCN(C(=O)c3ccc(OC)cc3)C2)no1 (stereo unspecified) | -11.0%
COc1cc(SC)ccc1C(=O)N[C@@H]1C=C(C(=O)N[C@H](CC(C)C)C(N)=O)C[C@@H](O)[C@@H]1O | 1.2%
CCNC(=O)N1CCCC1c1noc(CCC(=O)NC(C)C)n1 (stereo unspecified) | 4.4%
C[C@H](O)c1onc(-c2ccc(F)cc2)c1C(=O)NC1CCC1 | 3.4%[70.6 µM]
O=C(c1cnc2n[nH]c(-c3ccccc3)c2n1)N1CCN(c2ccccn2)CC1 | -13.4%[70.6 µM]
CC(C)Oc1ccc(CNC(=O)c2cc3n(n2)CC(c2ccc(Cl)cc2)OC3)cc1 (stereo unspecified) | ?
Cn1ncc(N2CCC(NC(=O)Cc3ccsc3)CC2)cc1=O | 2.8%
COCCOC1CCN(C(C(=O)O)c2ccc3c(c2)OCO3)CC1 (stereo unspecified) | 4.3%
O=C1CC(c2ccccc2)N(C(=O)CNC(=O)c2ccc(Cn3cncn3)o2)CCCCCN1 (stereo unspecified) | 0.1%

Grouped by structure, those above containing an aryl thioether with sulfur outside any ring.
SMILES | NPR1 antag
COc1ccc(NC(=O)O[C@@H]2CO[C@H]3[C@@H]2OC[C@@H]3n2nnnc2Sc2ccccc2)cc1 | -17.6%
COc1cc(SC)ccc1C(=O)N[C@@H]1C=C(C(=O)N[C@H](CC(C)C)C(N)=O)C[C@@H](O)[C@@H]1O | 1.2%

Continued:
SMILES | NPR1 antag
CC(NC(=O)CN1C(=O)COc2ccc(C(=O)COc3ccc(F)cc3F)cc21)c1ccccc1 (stereo unspecified) | 4.1%
O=C(O)c1cccc2c1CCN2C(=O)c1ccccc1 | -28.2%
CC(C)C(=O)N1CCC(COc2ccc3c(cnn3CC[S+](C)(=O)[O-])c2)CC1 | 3.8%[70.6 µM]
NCCc1n[nH]c(=O)n1-c1ccc2c(c1)OCO2 | 2.8%
CNC(=O)N1CCC(C2CCN(C(=O)c3cc(OC)cc(OC)c3)C2)CC1 (stereo unspecified) | 7.7%
COc1ccc(-c2noc(-c3nnn4c3COC(c3ccc(Cl)cc3)C4)n2)cc1F (stereo unspecified) | 2.4%
CCOc1cccc(CNC(=O)c2cc3c(=O)[nH]c(C)cn3n2)c1 | -4.9%
CC(C)NC(=O)N(C1CC1)C1CCOC2(CCN(C(=O)Cc3ccccc3)CC2)C1 (stereo unspecified) | -11.5%
CN1CCCCCCN(S(=O)(=O)c2cccc(F)c2)CCC1=O | -0.8%
CCN1C(=O)Cc2ccccc2C1C(=O)NCc1ccc(OC(C)C)cc1 (stereo unspecified) | -5.9%
CC(=O)NC[C@@H]1C=C(C)[C@H](Cc2nc3ccccc3n2C)C[C@H]1C(C)C | ?
O=C(O)CN1CC2(CCC1=O)CCN(C(=O)C1CNC(=O)C1)CC2 (stereo unspecified) | -1.6%
COc1ccc(NC(=O)c2ccc3c(c2)N(C)C2CCCCCN2C3=O)cc1 (stereo unspecified) | 2.0%
O=C(NCc1ccncc1)c1ccc(CN2C(=O)NC3(CCS(=O)(=O)CC3)C2=O)cc1 | 10.9%
N#CCCN1CCN(C(=O)c2cn3ccnc(-c4ccccc4)c3n2)CC1 | -1.2%
Cn1cc(CNC(=O)C[C@@H]2C[C@H]3O[C@H](CNC(=O)NC4CCC4)[C@@H](O)[C@H]3O2)cn1 | 11.0%[70.6 µM]
CN(C1CCOCC1)C1CCN(C(=O)c2ccn[nH]2)CC1 | 1.0%
COc1ccc(CC(=O)N2CCC(Cc3nc(-c4cnccn4)no3)CC2)cc1Cl | 1.0%
COC(=O)c1ccc2c(c1)nc1n2[C@@H](CNC2CCCCC2)COC1 | -12.2%[70.6 µM]
N#Cc1ccc(C(=O)NC2CCc3n[nH]c(=O)n3CC2)cc1 (stereo unspecified) | 2.5%

2 entries from above, reformatted:
NPR1 antag | SMILES
? | CC(=O)NC[C@@H]1C=C(C)[C@H](Cc2nc3ccccc3n2C)C[C@H]1C(C)C
-1.6% | O=C(O)CN1CC2(CCC1=O)CCN(C(=O)C1CNC(=O)C1)CC2 (stereo unspecified)

Next records follow:
SMILES | NPR1 antag
CCc1nc(-c2c3n(c(=O)n(Cc4ccc(OC)c(F)c4)c2=O)CCCCC3)no1 | 6.8%
COc1ccc(OC)c(CNC(=O)C2Cn3cccc3C(=O)N2Cc2cccnc2)c1 (stereo unspecified) | -6.0%
COCCNC(=O)[C@@H]1C[C@@H](O)CN1C1CCN(C(=O)COc2ccc(F)cc2)CC1 | 3.2%
COc1ccc(C(=O)N[C@H]2C[C@H]3C(=O)Nc4cc(Cl)ccc4C(=O)N3C2)cc1 | -4.4%[70.6 µM]
COCCCNC(=O)C(C)(C)Oc1nn(Cc2cccc(Cl)c2)c2ccccc12 | ?
COc1ccc(C2Cn3nnc(C(=O)N4CCN(C(=O)c5sccc5C)CC4)c3CO2)cc1 (stereo unspecified) | ?
COc1ccc(CCNc2ncnc3c2CN(C2CCC2)C(=O)N(C)C3)cc1 | -19.7%
CC(C)c1noc(-c2nc(-c3ccc4c(c3)OCO4)no2)n1 | ?
Cc1noc(-c2cccc(OC3CN(S(=O)(=O)c4c(C)noc4C)C3)c2)n1 | -7.4%
CCN1CCN(C[C@@H]2CN(Cc3ccccc3OC(F)F)C[C@@H]2CO)CC1 | -4.2%
CCn1c(=O)c2ccnn2c2ccc(C(=O)NCc3ccc(OC)cc3OC)cc21 | 0.3%
CCc1noc(C)c1C(=O)N[C@H](c1ccc2c(c1)CCO2)C1CC(O)C1 (stereo partly specified) | -1.2%
CS(=O)(=O)N1CCC2(CC1)CC(c1ccccc1)C(=O)N(C1CC1)C2 (stereo unspecified) | 1.3%
CC(C)c1ncc(-c2cc(C(=O)N(C)C(C)C)c3ccc(F)cc3n2)cn1 | 5.2%
COc1ccc(CC(=O)O)cc1S(=O)(=O)N1C[C@H](C(C)C)[C@@H](N)C1 | 0.0%
Cc1nc(CN2CCN(C(=O)Cn3nnnc3CN3C[C@@H](C)O[C@@H](C)C3)CC2)cs1 | 15.3%
O=C(NC1CCCCC1)N[C@H]1CO[C@H]2[C@@H]1OC[C@@H]2n1cc(-c2ccccn2)nn1 | -2.7%[70.6 µM]
c1ccc(N2CCN(Cc3cc(CC4(NCc5cnc6ccccc6c5)COC4)no3)CC2)cc1 | ?
CCOC(=O)CCNC(=O)N1CCCC(c2nc(-c3cccnc3)no2)CCNC(=O)CC1 (stereo unspecified) | -0.4%
COc1cccc(CC(=O)N2CC(C(=O)N(C)C)C3(CCOCC3)C2)c1 (stereo unspecified) | -5.7%

3 of these compounds, set out differently.
NPR1 antag | Compound
? | COCCCNC(=O)C(C)(C)Oc1nn(Cc2cccc(Cl)c2)c2ccccc12
-6.0% | COc1ccc(OC)c(CNC(=O)C2Cn3cccc3C(=O)N2Cc2cccnc2)c1 (stereo unspecified)
? | COc1ccc(C2Cn3nnc(C(=O)N4CCN(C(=O)c5sccc5C)CC4)c3CO2)cc1 (stereo unspecified)

Taken from above.
Result of CCn1c(=O)c2ccnn2c2ccc(C(=O)NCc3ccc(OC)cc3OC)cc21 under NPR1 antag: 0.3%
Result of COc1ccc(NC(=O)O[C@@H]2CO[C@H]3[C@@H]2OC[C@@H]3n2nnnc2Sc2ccccc2)cc1 under NPR1 antag: -17.6%

Next part
SMILES | NPR1 antag
O=C(NCc1ccncc1)C1CCN(C(=O)N2CC3CC(C2)[C@H]2CCCC(=O)N2C3)CC1 (stereo partly specified) | 5.5%
COc1ccc(-c2nc(C3CC(=O)N(c4ccc(F)c(Cl)c4)C3)no2)cc1OC (stereo unspecified) | 0.0%
COC(=O)c1cccc2nc([C@H]3CCN(Cc4ccccc4)C3)oc12 | -7.3%[70.6 µM]
Cc1nc(-c2cn(C3CCCN(C(=O)c4ccccc4F)C3)nn2)no1 (stereo unspecified) | -3.4%
CCc1ccc(CN(C)C(=O)c2cn(CC3COc4ccccc4O3)nn2)cc1 (stereo unspecified) | 0.1%
CN(C)c1ccc(CN[C@H]2C[C@H]3C(=O)NC[C@@H](CCC(=O)N4CCc5ccccc54)N3C2)cc1 | 2.4%
O=C(CC(c1cccc2c1OCO2)c1c[nH]c2ccccc12)NCc1ccccc1 (stereo unspecified) | -19.6%
COCc1cc(=O)n(CC(=O)Nc2ccccc2)c(N2CCOCC2)n1 | -8.7%
NC(=O)[C@@H]1CN(C(=O)c2ccccn2)C[C@H]1COc1ccccc1 | 3.3%
CCN(CC)Cc1nc(C2(O)CCN(CCC(C)C)CC2)cs1 | 3.3%[70.6 µM]
COc1ccc(-c2cc3c(=O)n(CCNC(=O)c4ccc(OC)c(OC)c4)ccn3n2)cc1 | -23.2%
C[C@H](C(=O)N(C)CCC#N)C1CC[C@@]2(C)Cc3sc(NC(=O)c4cccn4C)nc3[C@@H](C)[C@@H]2[C@H]1O (stereo partly specified) | ?
CNC(=O)[C@@H](Cc1ccccc1)N1CCC[C@H]1C(=O)N1CCN(C)CC1 | -3.6%[70.6 µM]
CCc1cc(=O)n(CC(=O)Nc2ccc(OC)c(OC)c2)c(-c2ccccc2)n1 | -19.8%
Cc1nc2c(c(-c3ccc(Cl)cc3)n1)CCN(C(=O)C1CCCC1)CC2 | -6.8%
Cc1cnc(C2CCOCC2)n1C1CCNCC1 | -1.5%
O=C(NCCCn1ccnc1)c1ccc(C2CCCNC2)cc1 (stereo unspecified) | 3.9%
COc1ccc(C(=O)N2CCN(c3nc4ncccc4o3)CC2)cc1 | 0.3%[70.6 µM]
O=C(C1CC=CCC1)N1CCC(Cc2nncn2-c2ccccc2)CC1 (stereo unspecified) | 3.4%
O=C(OCc1ccccc1)N1CCCN(c2cc(C3CC(O)C3)ncn2)CC1 (stereo unspecified) | 8.91µM*
Cc1cc(C)c(CNC(=O)c2cc(-c3cccc4[nH]ccc34)cc3ncn(C)c23)c(=O)[nH]1 | -3.0%[70.6 µM]
Cc1noc(C)c1CN1C[C@H]2[C@H](C1)[S+](=O)([O-])C(C)(C)C(=O)N2Cc1ccccc1F | -3.0%
CC1Oc2ccc(NC(=O)c3ccc(F)cc3F)cc2CN(Cc2ccccc2Cl)C1=O (stereo unspecified) | -21.0%
CCNC(=O)C1(c2ccc(NC(=O)C(C)C)cc2)CCCCC1 | 1.8%
COc1cccc(CNC(=O)CCc2cc3ccc(C)cc3[nH]c2=O)c1OC | 2.6%
CC(C)CCN1CC(C(=O)NCc2ccncc2)C2(CCOCC2)C1 (stereo unspecified) | -0.5%
COc1ccc(C(=O)N2CCC(=O)N(Cc3ccc(F)cc3)C(C(C)C)C2)o1 (stereo unspecified) | 4.0%
COc1cc(=O)n2c(c1C(=O)Nc1cccc3c1CCCC3)CCCC2 | 2.6%
CCc1cc(C(=O)N2C[C@@H](C(=O)O)[C@H](c3cccc(OC)c3)C2)cs1 | -2.2%
Cc1cnc(CC2CCN(S(=O)(=O)c3ccccc3)C2)n1C(C)C (stereo unspecified) | 1.5%
COc1ccc(C(=O)N2[C@@H]3CC[C@H]2CC(NC(=O)c2cnc(C)cn2)C3)cc1OC (stereo partly specified) | 0.1%
O=C(O)C[C@@H]1CCN(C(=O)COc2ccccc2)C[C@@H]1CCN1CCN(c2cccc(C(F)(F)F)c2)CC1 | 6.3%
COCCOC1CCN(C(=O)NCc2ccccc2)CC1 | -2.5%
Cc1cn2nc(C(=O)NC3CCCCCC3)cc2c(N2CCSCC2)n1 | -1.8%
Cc1cc2ncc(C(=O)N3CCC4(CC(=O)NC4=O)C3)c(=O)n2[nH]1 (stereo unspecified) | 6.9%
COCCCNc1nc(-c2cccnc2)nc2c1CNC2 | 0.8%
O=C(Cc1ccsc1)N1CCN(C(=O)c2nnn3c2COC(c2ccccc2)C3)CC1 (stereo unspecified) | -6.8%
CC(C)N1CCC2(CC1)CN(C(=O)C1CCOCC1)Cc1ccccc1O2 | -9.4%
O=C(NC1CCN(c2cc(-c3ccc(F)cc3)[nH]n2)CC1)c1cccc(F)c1 | -27.8%
COc1ccc(C(=O)N2CCC3(C2)C(=O)N(Cc2ccccc2)c2ccccc23)cc1 (stereo unspecified) | 5.01µM*
